LANA-H2A inh: blockers of LANA interaction with H2A/H2B – biochemical, FP readout, HTS, primary screen; Protein LANA1 (Human herpesvirus 8 type P (isolate GK18)), Q9QR71; cell-free LANA-H2A/H2B peptide, fluorescence polarization; inhibition, % (concentration not given with the values); 0.6% of 320,000 active; AID 2629, 2010; in the data active means inhibition mostly above about 10%, no sharp cut-off; inactive means mostly below about 6.7%;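 further: stock transfer was 7.5 nL into about 10 µL; 0% = median of vehicle wells and 100% = median of positive control wells; one replicate is shown; the record names a cut of 25% in any replicate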
ALR inh: inhibitors of human ALR sulfhydryl oxidase, primary screen, biochemical, H2O2 detection, HRP-luminol luminescence, single point. 3.8% of 290,000 active. purified ALR, DTT oxidation. FAD-linked sulfhydryl oxidase ALR (Homo sapiens), P55789. inhibition, % (concentration not given with the values);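 active means mean and each replicate at 75% or more; inconclusive means only one of the two met; inactive means neither met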;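 further: stock transfer was 7.5 nL into about 7.5 µL; 0% = neutral wells and 100% = wells with inactivated enzyme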
Target sequence (P55789 whole entry, looked up): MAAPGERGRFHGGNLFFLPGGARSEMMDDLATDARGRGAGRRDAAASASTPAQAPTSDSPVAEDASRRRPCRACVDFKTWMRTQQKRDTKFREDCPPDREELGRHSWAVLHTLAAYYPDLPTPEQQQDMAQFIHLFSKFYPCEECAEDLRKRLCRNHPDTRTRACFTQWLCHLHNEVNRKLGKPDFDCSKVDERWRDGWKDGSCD
A1 inh: caspase 3/7 activation in MEF A1-2A-BIM cells, primary screen, A1 inhibitor project, cell-based, luminescence, HTS; 0.066% of 330,000 active; Caspase-Glo 3/7 luminescence, 3 h; percent of clofoctol response, vehicle zero; caspase activation, % (test concentration not listed);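 active means over half of replicate activation scores above 10%, or exactly half above 10 with the replicate mean above 10; inconclusive means replicate mean below 10 yet half the replicates above 10; inactive means over half of replicates below 10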;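 further: wells of about 30 µL received 50 nL stock; many hits fall short of the cut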
Beta apoptosis: inhibitors of cytokine-induced beta cell apoptosis, primary screen, luminescence; INS-1E cytokine-induced death, ATP luminescence, 48 h; percent of positive-control rescue, neutral wells zero; protection from apoptosis, % (test concentration not listed); 0.8% of 300,000 active;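 active means all replicates at 75% or more, or half of them and the mean; inconclusive means half reach 75% but not the mean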;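 further: 0% = cytokine-treated negative control wells and 100% = positive control rescue; higher means more ATP so stronger rescue from cytokine killing; wells of about 40 µL received 100 nL stock; the first replicate is given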
B2AR ag: beta2AR agonists driving receptor internalization, primary screen, cell-based, FAP fluorogen, flow cytometry. Beta-2 adrenergic receptor (Homo sapiens), P07550. Am2.2-beta2AR cells; reference of the scale not given here. response, % (test concentration not listed). 0.43% of 340,000 active;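 active means response above a set limit, near 3 SD of response in nonfluorescent compounds, cut at about 42% in these data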;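 further: stock transfer was 100 nL into about 11 µL; a reference agonist was the positive control; negative values mostly stem from fluorescent compounds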
Target sequence (P07550 whole entry, looked up): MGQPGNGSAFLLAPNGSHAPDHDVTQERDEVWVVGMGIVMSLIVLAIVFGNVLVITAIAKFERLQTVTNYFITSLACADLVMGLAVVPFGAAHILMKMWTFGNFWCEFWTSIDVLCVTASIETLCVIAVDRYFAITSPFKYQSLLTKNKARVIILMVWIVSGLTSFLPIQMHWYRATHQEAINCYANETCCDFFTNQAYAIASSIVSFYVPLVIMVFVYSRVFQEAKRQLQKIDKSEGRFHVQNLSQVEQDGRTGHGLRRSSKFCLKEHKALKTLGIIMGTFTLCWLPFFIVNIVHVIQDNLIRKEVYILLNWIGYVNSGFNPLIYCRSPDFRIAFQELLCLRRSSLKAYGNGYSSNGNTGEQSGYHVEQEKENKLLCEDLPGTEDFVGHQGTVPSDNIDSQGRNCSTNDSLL
T cruzi inh: inhibitors of intracellular T. cruzi growth, primary screen, luminescence, NIH3T3 host cells; T. cruzi beta-gal in NIH3T3, 90 h; inhibition, % (test concentration not listed); 1.4% of 300,000 active;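 active means mean inhibition across valid replicates above about 55%, limit read from the data; inconclusive means mean below that limit but half or more replicates reach it; inactive means mean below it, under half of replicates reach it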;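 further: signal also drops with host cell toxicity which is not excluded here; 0% = plate median of DMSO wells and 100% = zero luminescence signal; higher percent means less beta-gal luminescence so fewer parasites; stock transfer was 50 nL into about 50 µL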
Ecoli rRNA inh: reduced GFP signal of wild-type E. coli, primary screen, bacterial rRNA inhibitor project, GFP/RFP fluorescence, OD600, single point; E. coli WT GFP vs humanized-ribosome RFP mutants, 24 h; active compounds read low; DMSO median 0, no signal -100; GFP signal change (wild-type ribosome), % (test concentration not listed); 1.6% of 350,000 active;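 active means significant combined selectivity score with lowered wild-type GFP, culture density cut under 30%, mutant RFP and density less affected; inactive means any of these conditions unmet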; further: one replicate is shown; some compounds called inactive have numbers as strong as hits
Calb FLC: C. albicans growth inhibition with fluconazole, primary screen, CaCi-2 strain, Alamar Blue fluorescence; C. albicans CaCi-2 (fluconazole-resistant clinical isolate) + fluconazole, 48 h; growth inhibition, % (no concentration beside the values); 0.57% of 300,000 active; AID 1979, 2009;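 active means most replicates above 75%; inconclusive means exactly half above 75%; inactive means most below 75%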;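 further: all wells also contain fluconazole at 8 µg/ml as a sub-toxic cotreatment; 0% = median of DMSO wells and 100% = median of geldanamycin control wells; wells of about 8 µL received 7.5 nL stock; the first replicate is given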
Ecoli rRNA inh OD600: recorded beside Ecoli rRNA inh, whose call it bears; OD600 change, %; measured here: OD600 growth;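 optical density of the mix in the first replicate; 0 = DMSO median and -100 = no signal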
Ecoli rRNA inh RFP: recorded beside Ecoli rRNA inh, whose call it bears; RFP signal change, %; measured here: RFP humanized mutant strains;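 first replicate; 0 = DMSO median and -100 = no signal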
* hit, by the source's call; ? = inconclusive; / = not tested or not shown.

SMILES	LANA-H2A inh	ALR inh	A1 inh	Beta apoptosis	B2AR ag	T cruzi inh	Ecoli rRNA inh	Ecoli rRNA inh OD600	Ecoli rRNA inh RFP	Calb FLC
CCOC(=O)C1=C(CN2CCCCCC2)NC(=O)NC1c1cccc([N+](=O)[O-])c1 (stereo not drawn)	-1.5	-8	0.3	-5	-6	-3	3	6	1.0	0
CC1CCCN(C(=S)Nc2ccc3nc4n(c(=O)c3c2)CCCCC4)C1 (stereo not drawn)	4.4	6	1.4	-4	-15	-4	-6	0	-9.5	2
O=C(Nc1cccc([N+](=O)[O-])c1)Nc1cccc([N+](=O)[O-])c1	9.6	-2	0.4	43	-6	40	-18*	-3.0*	-0.1*	-12
O=C(CCCCCn1c(=S)[nH]c2cc3c(cc2c1=O)OCO3)N1CCN(Cc2ccccc2)CC1	3.4	1	0.6	-2	-4	21	/	/	/	13
CCC(C)[C@H](NC(=O)Nc1ccc(C(C)=O)cc1)C(=O)OC (stereo partly drawn)	0.0	-7	0.7	-2	0	-13	/	/	/	-6
O=C(NCc1ccccc1)c1ccc2c(=O)n3c(nc2c1)CCCCC3	-11	0	-1.3	-3	-3	6	-16	-18	2.1	-9
COc1ccc(-c2cc(C(=O)Nc3ccccc3SC)no2)cc1OC	0.7	-1	-0.3	6	3	-3	/	/	/	23
Cc1ccc(C)c(OC(=O)c2cccc(S(=O)(=O)N3CCN(C)CC3)c2)c1	-4.1	2	0.1	1	3	3	-6	-18	-1.0	-4
Cc1ccc2ncc([N+](=O)[O-])n2c1	-0.7	-19	0.3	-3	4	-8	/	/	/	16
COc1ccc(/C=C2/C(=O)OCc3cc(OC)c(OC)cc32)cc1	8.5	23	-0.9	24	-12	-31	/	/	/	-3
Cc1ccc(F)cc1NC(=O)Nc1cc(C(C)(C)C)nn1C	4.0	10	-0.1	-12	2	8	/	/	/	?
COCCN(Cc1cc2cc(C)c(C)cc2nc1Cl)C(=O)Nc1ccccc1	-4.6	1	-0.6	2	-1	-6	4	19	-1.4	4
O=C(O)CCC1(C(=O)O)OCCc2ccccc21 (stereo not drawn)	4.6	-6	-0.2	-4	1	4	2	3	10	-7
O=Cc1ccc(OCc2ccc3c(c2)OCO3)cc1	4.0	-4	-12	1	10	-6	2	2	2.6	6
COc1ccc(N2CCN(C(=O)CN3C(=O)NC(C)(c4ccc5ccccc5c4)C3=O)CC2)cc1 (stereo not drawn)	0.3	/	-0.8	7	0	/	/	/	/	/
CC(=O)c1ccc(N2CCN(C(=O)c3cc(-c4cccnc4)nc4ccc(Br)cc34)CC2)cc1	-2.6	29	0.6	7	24	59*	7	10	0.2	-2
CC(C)(C)NC(=O)C1CCN(C(=O)c2ccco2)CC1	7.6	-5	0.1	0	-6	-4	6	12	-0.1	0
CCN(CC)S(=O)(=O)c1ccc(N/N=C/c2ccc(O)cc2O)nc1	0.1	/	0.0	66	3	26	/	/	/	91*
Cn1c(Cn2c(=O)sc3ccccc32)nnc1SCC(=O)N1CCc2ccccc21	5.1	-3	-0.4	-3	-6	/	0	6	-3.1	/
O=C(O)CSCC(=O)NCc1cccc(C(F)(F)F)c1	5.1	2	0.3	-5	8	-13	0	3	-0.8	9

Record cards (already shown). Order of screens: LANA-H2A inh, ALR inh, A1 inh, Beta apoptosis, B2AR ag, T cruzi inh, Ecoli rRNA inh, Ecoli rRNA inh OD600, Ecoli rRNA inh RFP, Calb FLC
Record of `COCCN(Cc1cc2cc(C)c(C)cc2nc1Cl)C(=O)Nc1ccccc1` : -4.6, 1, -0.6, 2, -1, -6, 4, 19, -1.4, 4
Record of `Cn1c(Cn2c(=O)sc3ccccc32)nnc1SCC(=O)N1CCc2ccccc21` : 5.1, -3, -0.4, -3, -6, /, 0, 6, -3.1, /

(cont.)
SMILES	LANA-H2A inh	ALR inh	A1 inh	Beta apoptosis	B2AR ag	T cruzi inh	Ecoli rRNA inh	Ecoli rRNA inh OD600	Ecoli rRNA inh RFP	Calb FLC
Cc1cccc(C(=O)Nc2cc(NC(=O)c3cccs3)ccc2C)c1	-3.5	-6	-0.9	6	-10	-3	-2	-2	0.0	9
Fc1ccc(CN2CCN(C(c3ccccc3)c3ccccc3)CC2)cc1	-0.5	5	1.7	1	11	6	-43	-66	-1.3	0
CCCCCc1ccc(-c2cn(Cc3ccc(C)cc3)nn2)cc1	-3.0	-1	-0.3	4	6	-20	14	15	12	-10
COC(=O)c1sccc1NC(=O)Cn1cnc2c1c(=O)n(C)c(=O)n2C	4.1	1	0.6	-2	-1	-2	/	/	/	-1
Cc1ccccc1OCC(O)CN1CCC(C)CC1 (stereo not drawn)	3.3	/	0.8	-6	-6	-19	4	4	-0.8	-6
Cc1nnc(-c2ccc(Oc3ccc(Cl)cc3)c([N+](=O)[O-])c2)o1	-2.7	-8	0.4	-5	-9	8	9	4	-2.8	1
CC1(c2ccccc2Cl)NC(=O)N(CC(=O)Nc2ccc(N3CCCCC3)cc2)C1=O (stereo not drawn)	-1.3	23	0.0	6	3	3	-16	-20	1.0	-4
Cc1ccc(N(C(=O)c2csnn2)C(C(=O)NC2CCCCC2)c2ccccn2)c(C)c1 (stereo not drawn)	4.4	-5	-1.1	4	-5	4	7	0	1.2	4
COc1ccc(S(=O)(=O)N2CCCCCC2)cc1C(=O)N(C)Cc1ccco1	-1.5	4	0.3	0	-9	7	-5	-13	-1.2	-4
O=C(O)/C=C\C(=O)Nc1ccccc1C(=O)NC1CCCCC1	6.3	12	-0.3	-1	-6	-19	7	9	-2.5	-2
CCCSc1nc2[nH]ncc2c(=O)[nH]1	2.7	-12	0.4	-3	2	-11	/	/	/	0
C#CCOc1ccc(C2C3=C(CCCC3=O)N(CC(=O)O)C3=C2C(=O)CCC3)cc1Br	-7.8	-38	2.7	-2	-3	-4	-3	-2	-6.0	-9
CCN(CC)S(=O)(=O)c1ccc(NC2CCCc3ccccc32)nc1 (stereo not drawn)	-1.1	-5	0.1	7	11	17	/	/	/	9
COc1ccc(C(=O)Nc2ccc(NC(=O)c3ccccn3)cn2)cc1	/	/	/	/	-2	-12	-1	1	-1.3	13
COC(=O)C(Cc1ccccc1)NC(=O)CCCC(=O)NCc1cccc(OC)c1 (stereo not drawn)	-1.2	-7	0.1	/	-6	-9	9	13	-0.3	33
O=C(Nc1ccc2c(c1)OCO2)N1CCCC1	-5.1	-1	-0.6	3	-10	-9	-38	-53	4.7	-3
COCCCn1c(SC(C)C(=O)NC2CC2)nc2ccccc2c1=O (stereo not drawn)	-4.7	-1	-0.8	-2	0	7	4	3	1.4	4
COC(=O)c1ccc(C(=O)Nc2cc(Cl)ccc2Cl)cc1NC(=O)c1ccc(N(C)C)cc1	0.5	4	0.3	-15	3	-6	10	-6	-1.2	-6
O=C1c2ccccc2C(Nc2ccc(S(=O)(=O)N3CCCCC3)cc2)N1c1ccccn1 (stereo not drawn)	2.1	-3	-0.9	7	-10	22	-1	-5	16	-2
Cc1nnc(NC(=O)CCC(=O)N2CCN(CCOc3cccc4ccccc34)CC2)s1	-1.0	-16	-0.6	3	-7	21	4	8	0.5	-19
Cc1cc(=O)[nH]c(SCC(=O)Nc2c(C)n(C)n(-c3ccccc3)c2=O)c1C#N	-1.6	/	-0.7	5	7	/	0	10	-2.2	/
Cc1nn(CC(=O)NCC2CCCO2)c(=O)c2ccccc12 (stereo not drawn)	1.2	-2	0.1	-6	-2	6	/	/	/	-4
CN1C(=S)SC(N(O)C=C2C=CC(=O)C=C2)C1(C)C (stereo not drawn)	-2.4	/	-0.3	-4	-2	7	/	/	/	-2
O=C(NCCS(=O)(=O)N1CCN(c2cccc(Cl)c2)CC1)c1cc(=O)c2ccccc2o1	-1.7	-8	-2.7	/	4	-9	4	9	0.4	-3
N/C(Cc1cccc2ccccc12)=N\OC(=O)c1cccs1	-0.2	-3	-0.3	3	8	16	/	/	/	-17
CC(=O)Nc1nnc(S(=O)(=O)N2CCN(c3ccc(Cl)cc3[N+](=O)[O-])CC2)s1	-0.9	4	-0.4	-4	-2	10	5	14	2.2	8
O=C(NC1CCCC1)C(c1c(F)cccc1Cl)N(C(=O)c1csnn1)C1CC1 (stereo not drawn)	3.6	-15	-0.1	-4	-5	6	-5	1	1.7	7
O=C(CN1C(=O)C2(OCCO2)c2ccccc21)c1ccc(F)cc1	-2.1	2	1.0	0	5	-8	/	/	/	?
Cc1c(NS(=O)(=O)c2cccc(C(=O)NCc3ccc(Cl)cc3)c2)c(=O)n(-c2ccccc2)n1C	-3.1	-3	0.7	4	-1	4	/	/	/	11
CCCOc1ccc(C2c3c(oc4ccccc4c3=O)C(=O)N2CCN(CC)CC)cc1OC (stereo not drawn)	2.2	-14	-0.1	2	0	3	/	/	/	-1
COC(=O)c1ccsc1NC(=O)CCS(=O)(=O)c1ccc(Cl)cc1	2.7	-6	-1.2	/	12	?	9	-2	2.9	26
CC(=O)c1cccc(Oc2ncccn2)c1	-0.1	-1	-0.4	-2	-1	-11	-3	6	-3.0	3
O=C1NC(=Nc2ccccc2)SC1Cc1cccc(Cl)c1Cl (stereo not drawn)	3.2	/	1.2	-7	-10	-7	/	/	/	3
Cc1ccc(-c2noc(C3CCN(S(C)(=O)=O)CC3)n2)o1	4.9	-1	1.1	-2	5	9	/	/	/	50
COC(=O)c1c(-c2ccccc2)nn(-c2ccccc2)c1C(=O)OC	-0.6	0	0.0	-1	2	-12	2	6	2.0	-12
COc1ccccc1CNc1cc(-c2ccccc2)ccc1OC	-2.8	-4	0.3	3	-5	17	/	/	/	-10
O=C(Nc1ccccc1)N(CCN1CCOCC1)Cc1cccc(Cl)c1	6.8	-3	0.1	-7	5	1	-1	-4	-5.4	-11
COc1cccc(C2=Nc3cccc4cccc(c34)N2)c1	-3.3	-9	0.6	6	15	-6	/	/	/	-16
Cc1cc(C(=O)N/N=C/C=C/c2ccc(Br)cc2)n[nH]1	-8.9	-14	1.5	2	13	-9	3	5	-0.2	-4
COc1ccc(N2C(=O)CN(Cc3cc(OC)c(OC)c(OC)c3)C2=S)cc1	1.4	35	0.6	-3	4	-3	19	12	2.4	-4
O=C(C1CCN(S(=O)(=O)Cc2ccccc2)CC1)N1CCN(c2ncccn2)CC1	-3.6	2	-1.2	2	1	9	/	/	/	-15
CN(C)/C=N/c1cc(=O)n(C)c(=O)n1CC1CC1	3.2	-8	1.1	-11	-1	-3	6	12	-1.0	-8
COc1ccccc1C1CC(c2cccs2)=NN1C(=O)CCC(=O)O (stereo not drawn)	-1.7	-5	0.2	-1	6	-7	5	-7	2.3	3
Cc1noc(C)c1CSCC(=O)N(CCC(C)C)c1c(N)n(Cc2ccccc2)c(=O)[nH]c1=O	4.9	0	-0.1	-6	9	15	3	8	1.7	0

Screening results from PubChem BioAssay.

The list is partial; the hit share may differ from the screen's.
